Shh pathway inh – blocks Sonic Hedgehog signaling. Shh-LIGHT2 Gli-luciferase reporter, 30 h. AID 2313. inhibition, % (concentration not given with the values). hit rate 2.1% among 22,000;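 active means replicate mean of 65% or more; inconclusive means mean lower but half the replicates past it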;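 further: pathway switched on by Shh-conditioned medium diluted 1 in 25 in low serum; 100 nL library stock added to about 40 µL; 0% = median of neutral wells and 100% = positive control level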
MITF inhib – blocks MITF activity; AID 2240; hit rate 0.28% among 37,000; TRPM1 promoter luciferase, luminescence, 24 h; inhibition, % (concentration not given with the values);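 active means most replicates at 85% or more, or half of them and the mean; inconclusive means half reach 85% but not the mean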;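 further: human melanocyte line stably carrying TRPM1 promoter luciferase reporter; 0% = vehicle wells and 100% = a positive control; the first replicate is given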
YB-1 expression – YB-1 expression inhibition | delta delta Cp (YB-1 minus CDIP) (no concentration beside the values) | hit rate 0.37% among 30,000 | U2OS, qRT-PCR YB-1 vs CDIP delta delta Cp, 16 h; hits give high values; zero = DMSO, each unit about twofold;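 active means delta delta Cp rounded down to an integer at or above 3, about 3 SD of DMSO wells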;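 further: higher means less YB-1 transcript or more CDIP transcript relative to DMSO; stock transfer was 100 nL into about 100 µL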
PD-1 reversal – activators reversing PD-1 mediated T-cell inhibition; primary human CD4 T cells, PD-L1 beads, CellTiter-Glo 96 h; activation, % (concentration not given with the values); 29,000 tested, under 10 active; AID 2316;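 active means replicate mean of 50% or more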;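 further: 0% = median vehicle wells and 100% = positive control; 100 nL library stock added to about 50 µL; numbers are from one replicate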
* marks the source's active call; other numbers are inactive results; ? = inconclusive; . = no result given.

Compound	Shh pathway inh	MITF inhib	YB-1 expression	PD-1 reversal
COc1ccc(NC(=O)Nc2cccc3c2O[C@H](CN(C)CC2CCCCC2)[C@@H](C)CN([C@@H](C)CO)C3=O)cc1	11	14	0.2	.
C[C@H](CO)N1C[C@H](C)[C@H](CN(C)C(=O)Nc2ccc3c(c2)OCO3)Oc2ccc(NC(=O)Cc3ccccc3)cc2C1=O	-3	-12	-0.075	-1.0
CS(=O)(=O)N(CC(=O)Nc1ccccc1)Cc1ccc(Cl)cc1	.	-1	.	1.5
C[C@H]1CN([C@@H](C)CO)C(=O)c2cc(NC(=O)Nc3ccc(C(F)(F)F)cc3)ccc2O[C@@H]1CN(C)Cc1ccc(C(=O)Nc2ccccc2N)cc1	.	12	-0.051	-3.2
Cc1cc(N(CC(=O)NC2CCCCCC2)S(C)(=O)=O)ccc1Br	.	-4	.	-1.0
COc1ccc(C(=O)NCCn2cc(SCC(=O)Nc3ccccc3)c3ccccc32)cc1	-13	2	0.081	-2.5
C[C@@H]1CN([C@H](C)CO)C(=O)c2cccc(NC(=O)C3CCOCC3)c2O[C@@H]1CN(C)Cc1ccc(C(=O)Nc2ccccc2N)cc1	.	2	-0.066	0.6
COc1ccc(-c2cc(C(F)(F)F)nc(SCC(=O)N(C)c3ccccc3)n2)cc1OC	.	9	.	-4.7
C[C@H]1CN([C@@H](C)CO)C(=O)c2cccc(NC(=O)CCCCCC(=O)Nc3ccccc3N)c2O[C@H]1CN(C)Cc1ccc(C(F)(F)F)cc1	.	35	-0.083	-0.2
COc1ccc(S(=O)(=O)Nc2ccc3c(c2)C(=O)N([C@@H](C)CO)C[C@H](C)[C@H](CN(C)C(=O)NC2CCCCC2)O3)cc1	-14	13	0.11	1.0
CC(=O)c1cccc(NC(=O)CN(C)S(=O)(=O)c2ccccc2)c1	.	-40	.	0.2
C[C@@H]1CN([C@@H](C)CO)C(=O)c2cccc(NC(=O)C3CCCCC3)c2O[C@H]1CN(C)Cc1ccc(Oc2ccccc2)cc1	-21	77	-0.12	-5.3
Cc1cc(NC(=O)CSc2nnc(-c3ccccc3)n2-c2ccc(F)cc2)ccc1Br	.	3	.	-0.2
CNC[C@H]1Oc2ccc(NS(C)(=O)=O)cc2C(=O)N([C@@H](C)CO)C[C@@H]1C	-14	13	-0.087	2.5
COc1ccc(NC(=O)Nc2ccc3c(c2)CC(=O)N([C@H](C)CO)C[C@H](C)[C@H](CN(C)Cc2ccccc2)O3)cc1	1	5	-0.0027	.

A few values from the entries so far.
Result for Cc1cc(NC(=O)CSc2nnc(-c3ccccc3)n2-c2ccc(F)cc2)ccc1Br under MITF inhib: 3
Result for C[C@H](CO)N1C[C@H](C)[C@H](CN(C)C(=O)Nc2ccc3c(c2)OCO3)Oc2ccc(NC(=O)Cc3ccccc3)cc2C1=O under PD-1 reversal: -1.0
Result for CC(=O)c1cccc(NC(=O)CN(C)S(=O)(=O)c2ccccc2)c1 under MITF inhib: -40
Result for C[C@H]1CN([C@@H](C)CO)C(=O)c2cc(NC(=O)Nc3ccc(C(F)(F)F)cc3)ccc2O[C@@H]1CN(C)Cc1ccc(C(=O)Nc2ccccc2N)cc1 under MITF inhib: 12

Following part:
Compound	Shh pathway inh	MITF inhib	YB-1 expression	PD-1 reversal
CCN(CC)S(=O)(=O)c1cccc(C(=O)O)c1	.	-4	-1.1	0.1
C#C[C@]1(O)CC[C@H]2[C@@H]3CCC4=CC(=O)CC[C@@H]4[C@H]3CC[C@@]21C	-67	4	-0.15	.
COc1ccc(S(=O)(=O)Nc2ccc3c(c2)CC(=O)N([C@@H](C)CO)C[C@H](C)[C@@H](CN(C)S(=O)(=O)c2c(C)noc2C)O3)cc1	11	-2	-0.28	.
C=CCNC(=O)c1c(NC(=O)C2COc3ccccc3O2)sc2c1CCCC2 (stereo not drawn)	.	13	.	-6.3
O=C1c2cccc3cccc(c23)C(=O)N1CCc1cnc[nH]1	.	-11	.	2.2
C[C@@H]1CN([C@H](C)CO)C(=O)c2cccc(NC(=O)Nc3ccc(C(F)(F)F)cc3)c2O[C@@H]1CN(C)C(=O)NC1CCCCC1	-53	27	-0.38	-6.3
S=C(NCC1CC1)Nc1ccc2[nH]ccc2c1	-27	-28	0.3	-0.2
Cc1noc(C)c1S(=O)(=O)Nc1ccc2c(c1)CC(=O)N([C@@H](C)CO)C[C@@H](C)[C@@H](CN(C)C(=O)Nc1ccc(C(F)(F)F)cc1)O2	-51	15	0.13	-2.3
Cc1ccc(S(=O)(=O)N(C)C[C@H]2Oc3ccc(NC(=O)c4ccncc4)cc3C(=O)N([C@H](C)CO)C[C@@H]2C)cc1	.	-4	0.016	0.7
CC(C)NC(=O)Nc1cccc2c1O[C@@H](CN(C)Cc1ccc(-c3ccccc3)cc1)[C@@H](C)CN([C@@H](C)CO)C2=O	-4	10	-0.2	-0.4
COc1ccc(S(=O)(=O)N(C)C[C@@H]2Oc3ccc(NC(=O)NC(C)C)cc3C(=O)N([C@H](C)CO)C[C@@H]2C)cc1	.	-17	-0.36	.
C[C@@H]1CN([C@@H](C)CO)C(=O)Cc2cc(NS(C)(=O)=O)ccc2O[C@@H]1CN(C)Cc1ccccc1	30	-11	-0.016	0.9
COc1ccc(Nc2nc(N)nc(CSc3nc(C)cc(C)n3)n2)cc1	.	-16	.	-1.4
Cc1noc(C)c1NC(=O)Nc1ccc2c(c1)C(=O)N([C@H](C)CO)C[C@H](C)[C@@H](CN(C)C(=O)NC1CCCCC1)OCCCC[C@@H](C)O2	-11	-5	0.36	.
CCCn1nnc(NC(=O)C(C)Oc2ccc(Cl)cc2Cl)n1 (stereo not drawn)	.	14	.	1.0

Copied from the entries so far (2 entries):
Compound	Shh pathway inh	MITF inhib	YB-1 expression	PD-1 reversal
COc1ccc(NC(=O)Nc2cccc3c2O[C@H](CN(C)CC2CCCCC2)[C@@H](C)CN([C@@H](C)CO)C3=O)cc1	11	14	0.2	.
C[C@H](CO)N1C[C@H](C)[C@H](CN(C)C(=O)Nc2ccc3c(c2)OCO3)Oc2ccc(NC(=O)Cc3ccccc3)cc2C1=O	-3	-12	-0.075	-1.0

(further entries)
Compound	Shh pathway inh	MITF inhib	YB-1 expression	PD-1 reversal
Cc1ccc(S(=O)(=O)Nc2cccc3c2O[C@@H](CN(C)S(=O)(=O)c2ccccc2)[C@@H](C)CN([C@H](C)CO)C3=O)cc1	-87	10	-0.59	0.1
C[C@H]1CN([C@@H](C)CO)C(=O)c2cc(NC(=O)CCC(F)(F)F)ccc2O[C@H]1CN(C)S(C)(=O)=O	.	-9	0.094	-0.3
COc1ccc(NC(=O)Nc2ccc3c(c2)C(=O)N([C@@H](C)CO)C[C@H](C)[C@H](CN(C)C(=O)Nc2cccc4ccccc24)O3)cc1	.	-6	0.42	-0.9
C[C@H](CO)N1C[C@H](C)[C@H](CN(C)C(=O)Nc2cccc3ccccc23)Oc2c(NS(=O)(=O)c3cccs3)cccc2C1=O	16	9	-0.19	1.6
C[C@H]1CN([C@@H](C)CO)C(=O)c2cc(NC(=O)CCN3CCOCC3)ccc2O[C@H]1CN(C)Cc1ccccc1	.	-5	-0.019	-1.8
Cc1ccc(S(=O)(=O)N(C)CC(=O)Nc2cccc3c2CCCC3)cc1	.	0	.	0.8
COc1ccc(NC(=O)Nc2ccc3c(c2)CC(=O)N([C@@H](C)CO)C[C@H](C)[C@@H](CN(C)C(=O)NC2CCCCC2)O3)cc1	?	0	0.18	1.9
OC[C@H]1O[C@@H](Oc2ccc3c(c2)OC[C@H]2c4cc5c(cc4O[C@@H]32)OCO5)[C@H](O)[C@@H](O)[C@@H]1O	-24	-52	0.065	1.6
C[C@@H]1CN([C@H](C)CO)C(=O)Cc2cc(NC(=O)Nc3ccc4c(c3)OCO4)ccc2O[C@@H]1CN(C)Cc1ccncc1	.	-28	-0.33	-0.6
COc1ccc(NC(=O)N(C)C[C@H]2Oc3c(NS(=O)(=O)c4ccc(Cl)cc4)cccc3C(=O)N([C@H](C)CO)C[C@H]2C)cc1	4	-3	-0.6	0.6
CC(C)(C)[C@H]1COC(CC2=N[C@@H](C(C)(C)C)CO2)=N1	-41	-10	0.15	0.2
C=C1C[C@@]23C[C@H]4C5[C@@]6(C)CC(=O)C[C@]57C(C2C(O)[C@H]1C(O)C37)N4C6 (stereo partly drawn)	-22	-11	-0.56	-0.9
C[C@@H]1CN([C@H](C)CO)C(=O)c2cccc(NC(=O)C3CC3)c2O[C@@H]1CN(C)C(=O)Nc1ccc(F)cc1	1	-2	-0.078	0.5
O=C(O)C1CC(O)CN1S(=O)(=O)c1ccc(Cl)cc1 (stereo not drawn)	.	-13	.	2.7
CCn1c(SCC(=O)Nc2ccccc2Br)nnc1-c1ccccc1	.	-8	.	-0.4

(list continues)
SMILES | Shh pathway inh | MITF inhib | YB-1 expression | PD-1 reversal
COc1ccc(S(=O)(=O)N(C)C[C@H]2Oc3c(NS(=O)(=O)c4ccc(Cl)cc4)cccc3C(=O)N([C@H](C)CO)C[C@@H]2C)cc1 | 22 | -19 | -0.11 | 0.4
CS(=O)(=O)N(CC(=O)Nc1ccc(F)c(F)c1)c1ccccc1Br | . | -32 | . | -0.9
COc1ccc(S(=O)(=O)N(C)C[C@@H]2Oc3c(NS(=O)(=O)c4c(C)noc4C)cccc3C(=O)N([C@@H](C)CO)C[C@@H]2C)cc1 | 11 | -5 | 0.076 | 1.0
C[C@@H]1CN([C@H](C)CO)C(=O)Cc2cc(NC(=O)C3CCCCC3)ccc2O[C@@H]1CN(C)S(C)(=O)=O | -15 | 0 | 0.14 | 1.0
O=C(O)c1ccccc1-c1ccccc1C(=O)NCCCO | . | 1 | . | -0.7
C[C@H](CO)N1C[C@H](C)[C@@H](CN(C)C(=O)Nc2ccc(F)cc2)Oc2c(NS(C)(=O)=O)cccc2C1=O | 29 | -10 | 0.2 | .
CC1(C)CC(=O)C2=C(C1)N(Cc1ccc(F)cc1)C(=O)C2(NC(=O)c1cccnc1)C(F)(F)F (stereo not drawn) | . | -16 | . | 1.1
CC(C)NC(=O)Nc1ccc2c(c1)C(=O)N([C@@H](C)CO)C[C@@H](C)[C@@H](CN(C)Cc1ccccc1)O2 | -12 | -1 | 0.43 | 0.5
Cn1c(SCC(=O)Nc2cccc(F)c2)nnc1-c1ccc(Cl)cc1 | . | 16 | . | 0.6
CNC[C@H]1Oc2c(NC(=O)Nc3ccc(C(F)(F)F)cc3)cccc2C(=O)N([C@@H](C)CO)C[C@H]1C | -57 | -4 | 0.33 | -0.4
C[C@@H]1CN([C@@H](C)CO)C(=O)c2cc(NC(=O)c3ccncc3)ccc2O[C@@H]1CN(C)Cc1ccc(Oc2ccccc2)cc1 | 84* | -5 | -0.33 | -1.1
C[C@H](CO)N1C[C@H](C)[C@@H](CN(C)C(=O)Nc2cccc3ccccc23)Oc2ccc(NC(=O)Nc3cccc4ccccc34)cc2C1=O | -8 | 15 | 0.0041 | -1.9
O=C(Nc1ccccc1C(=O)N1CCOCC1)C1CCCO1 (stereo not drawn) | . | -12 | . | 0.3
C=C[C@@](C)(O)CCC1C(=C)CCC2[C@@](C)(CO)CCC[C@]12C (stereo partly drawn) | 30 | 2 | 0.062 | -1.4
C[C@H]1CN([C@@H](C)CO)C(=O)Cc2cc(NC(=O)c3ccncc3)ccc2O[C@H]1CN(C)Cc1ccncc1 | -4 | -4 | -0.014 | .
CCOC(=O)c1sc(/S(C)=N/C(=O)Nc2ccccc2Cl)c2c1CCC=C2 (stereo not drawn) | 5 | -1 | 0.0017 | -1.9
COc1ccc(NC(=O)Nc2ccc3c(c2)C(=O)N([C@H](C)CO)C[C@@H](C)[C@H](CN(C)C(=O)Nc2ccc(C(F)(F)F)cc2)O3)cc1 | 19 | 2 | -0.12 | -0.2
COc1ccc(N(CC(=O)Nc2ccc(I)cc2)S(C)(=O)=O)cc1Cl | . | 8 | . | 0.3
C[C@@H]1CN([C@@H](C)CO)C(=O)c2cc(NS(=O)(=O)c3ccccc3)ccc2O[C@H]1CN(C)C(=O)Nc1ccc2c(c1)OCO2 | -45 | -11 | 0.08 | -0.6
C[C@H](CO)N1C[C@H](C)[C@H](CN(C)C(=O)NC2CCCCC2)Oc2ccc(NC(=O)C3CCCCC3)cc2C1=O | 0 | -10 | 0.45 | -1.4
COC(=O)C1(Cc2ccc(O)cc2)OC(=O)C(=O)C1c1ccc(O)cc1 (stereo not drawn) | 5 | -8 | -0.43 | 1.7
CC(=O)O[C@@]1(C)C[C@@H](O)[C@@H]2C=CO[C@@H](O[C@@H]3O[C@H](CO)[C@@H](O)[C@H](O)[C@H]3O)[C@@H]21 | -31 | . | 0.22 | .
COC(=O)c1ccc(-n2c(CCC(=O)O)ccc2-c2ccc(Cl)cc2)cc1 | . | -7 | . | 1.5
COc1ccc(CN(C)C[C@H]2Oc3ccc(NC(=O)CCC(F)(F)F)cc3C(=O)N([C@@H](C)CO)C[C@H]2C)cc1 | 15 | -16 | -0.4 | 0.5

Two compounds drawn at random from the list so far, as already listed:
SMILES | Shh pathway inh | MITF inhib | YB-1 expression | PD-1 reversal
COc1ccc(CN(C)C[C@H]2Oc3ccc(NC(=O)CCC(F)(F)F)cc3C(=O)N([C@@H](C)CO)C[C@H]2C)cc1 | 15 | -16 | -0.4 | 0.5
COc1ccc(NC(=O)Nc2ccc3c(c2)C(=O)N([C@H](C)CO)C[C@@H](C)[C@H](CN(C)C(=O)Nc2ccc(C(F)(F)F)cc2)O3)cc1 | 19 | 2 | -0.12 | -0.2

This is a subset; the hit share may differ from the screen's.
